# RE007 growth inh – qHTS Assay for Inhibitors of the HIV-1 protein Vpr | 360,000 compounds, 0.21% hits | S. pombe RE007 Vpr strain, BacTiter-Glo ATP luminescence, 24 h; control for the full effect not named in the record | Potency, µM (highest dose often 92.2 µM), for inactives: at the top dose activity change, negative = less growth; active = well fitted falling curve with a large enough effect; inconclusive = small, poorly fitted or top-dose-only effect; inactive = no such curve, though single readings can be large or run the other way;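 note: % is set by controls: 0 for no effect and ±100 for the full control effect; nearly all actives have a fitted effect of over 50% in size; the assay follows cell death caused by Vpr and the record does not say whether a fall means rescue or toxicity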
#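 Fission yeast RE007 carrying one integrated HIV-1 vpr copy, seeded at OD 0.01 in PMG+AL medium with 23 nL pinned compound. Grown 24 h at 30 degrees; viability read by BacTiter-Glo luminescence after 5 min.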
# Cruzain noTriton – qHTS Assay for Promiscuous and Specific Inhibitors of Cruzain (without detergent) | AID 1476, 2009 | 200,000 compounds, 2.3% hits | purified cruzain, Z-FR-AMC fluorescence, no detergent | Potency, µM, for inactives: max response, negative = inhibition, usual class: inhibitors;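 note: plate controls were enzyme without inhibitor for no effect and buffer without enzyme for full effect; nearly all actives have a fitted effect of over 40% in size; top concentration of the series not given in the record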
# Target sequence (P25779 123-467 limits assumed): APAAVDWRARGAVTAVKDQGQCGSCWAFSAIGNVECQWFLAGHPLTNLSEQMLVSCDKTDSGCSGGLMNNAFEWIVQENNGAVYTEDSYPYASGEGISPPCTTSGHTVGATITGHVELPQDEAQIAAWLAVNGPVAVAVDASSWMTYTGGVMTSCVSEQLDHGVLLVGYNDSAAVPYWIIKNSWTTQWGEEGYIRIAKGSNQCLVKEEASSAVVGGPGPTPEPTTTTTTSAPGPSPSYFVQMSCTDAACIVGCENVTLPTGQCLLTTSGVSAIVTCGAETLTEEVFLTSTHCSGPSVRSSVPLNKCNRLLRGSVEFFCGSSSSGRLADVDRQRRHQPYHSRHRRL
#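 Purified cruzain at 1.5 nM, pre-incubated 15 min with compound at room temperature in 100 mM sodium acetate pH 5.5, 5 mM DTT, 0.00005% Triton X-100. Reaction started with 2 uM Z-FR-AMC; AMC fluorescence increase over 60 s gives rate.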
# Lassa entry inh – qHTS for Inhibitors of binding or entry into cells for Lassa Virus | Potency, µM (series often up to 37.9 µM), for the others: top-dose activity change, negative = inhibition, actives largely listed as inhibitors | 300,000 compounds, 1.2% hits | Lassa virus pseudotype entry inhibition, cell reporter; control for the full effect not named in the record | AID 540256, 2011; active means well fitted inhibition curve with a large enough effect; inconclusive means small, poorly fitted or top-dose-only effect, or effect the other way; inactive means flat fitted curve, though single readings scatter; tested in HEK293 cells; note: % is set by controls: 0 for no effect and ±100 for the full control effect; nearly all actives have a fitted effect of over 50% in size; luciferase read-out
# Cruzain inh Det – qHTS Assay for Promiscuous and Specific Inhibitors of Cruzain (with detergent); Cruzipain (Trypanosoma cruzi), P25779; purified cruzain, Z-FR-AMC fluorescence, 0.01% Triton; Potency, µM, without a hit: max response, negative = inhibition, usual class: inhibitors; 200,000 compounds, 0.43% hits; AID 1478, 2009;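 note: plate controls were neutral wells for no effect and buffer without enzyme for full effect; nearly all actives have a fitted effect of over 40% in size; top concentration of the series not given in the record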
#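 Purified cruzain (1.5 nM final) was preincubated with compounds for 15 min at room temperature in 100 mM sodium acetate pH 5.5, 5 mM DTT, 0.01% Triton X-100. Reaction started with 2 uM Z-FR-AMC; AMC fluorescence change over 60 s gave activity.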
# 2A StopGo – High Throughput Screening for Foot and Mouth Disease Virus Antivirals; human cells with a luciferase reporter of 2A StopGo recoding; control for the full effect not named in the record; Potency, µM (top dose mostly 57.9 µM), inactives show top-dose signal change, negative = less light; 410,000 compounds, 1.2% hits; AID 1159524, 2015; active = well fitted falling curve with a large enough effect; inconclusive = small, poorly fitted or top-dose-only effect; inactive = no such curve, though single readings can be large or run the other way; tested in HEK293T cells; note: % is set by controls: 0 for no effect and ±100 for the full control effect; nearly all actives have a fitted effect of over 45% in size; luciferase light after 4 h
# Marburg entry inh – qHTS for inhibitors of binding or entry into cells for Marburg Virus; Marburg virus pseudotyped entry inhibition, cell reporter; control for the full effect not named in the record; about a third of the inactives were read at about 46 µM; Potency, µM (highest dose often 37.8 µM), without a hit: at the highest dose activity change, negative = inhibition, actives largely listed as inhibitors; 300,000 compounds, 1.8% hits; active = well fitted inhibition curve with a large enough effect; inconclusive = small, poorly fitted or top-dose-only effect, or effect the other way; inactive = flat fitted curve, though single readings scatter; tested in HEK293 cells; about a fifth of its hits are not listed in these tables; note: % is set by controls: 0 for no effect and ±100 for the full control effect; luciferase read-out
# NS1 inh – qHTS Assay for Inhibitors of Influenza NS1 Protein Function | S. cerevisiae slowed by influenza A NS1, growth recovery by OD600 | Potency, µM (titrated, usually from 46.1 µM), without a hit: at the top dose activity, positive = more growth | 270,000 compounds, 0.4% hits; active means well fitted rising curve with a large enough effect; inconclusive means small, poorly fitted or top-dose-only effect; inactive means no such curve, though single readings can be large or run the other way; note: nearly all actives have a fitted effect of over 50% in size
#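 Read-out: OD600 growth recovery of NS1-expressing budding yeast. Cells grown overnight at 30C in -URA glucose medium, washed, resuspended and diluted 1:100 in 2% galactose assay medium, pH 6.0. Same strain lacking NS1 served as positive control.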
# SARS PLP yeast – qHTS of Yeast-based Assay for SARS-CoV PLP. S. cerevisiae expressing SARS-CoV PLpro, growth rescue; control for the full effect not named in the record. Potency, µM (series often up to 32.9 µM), inactives show at the top dose activity, positive = growth rescue. 330,000 compounds, 0.19% hits. AID 485353, 2010; active means well fitted rising curve with a large enough effect; inconclusive means small, poorly fitted or top-dose-only effect; inactive means no such curve, though single readings can be large or run the other way; note: 0% is about no effect; nearly all actives have a fitted effect of over 55% in size; growth read by luminescence after 48 h
# * = called active by the depositor; ? = inconclusive; · = no result given; & = joins results of further samples; ! = a repeat was not active; [ ] = remark or other dose. Unless noted, calls come from the whole dose curve; as a rule, active = well fitted curve in the direction sought with a large enough effect; inconclusive = small, poorly fitted or top-dose-only effect, or another doubt; inactive = no such curve, though single readings can be large; an effect the other way counts as inactive or inconclusive. Potency is the fitted concentration of half-maximal effect.
SMILES,RE007 growth inh,Cruzain noTriton,Lassa entry inh,Cruzain inh Det,2A StopGo,Marburg entry inh,NS1 inh,SARS PLP yeast
Cc1ccc(Cl)cc1NC(=O)CC1NCCNC1=O (stereo not given),11%,-17%,4%,1.2%,-3%,3%,18%,-13%
CN1c2cccc3cccc(c23)N(C)C1(C)C,-21%,-19%,22%,-14%,-25%,2%,6%,-5%
Cc1ccc(-c2[nH]nc3c2C(c2ccsc2)C(C#N)=C(N)O3)cc1 (stereo not given),-20%,2%,4%,-7.9%,-23%,?,7%,7%
CCO[C@@H]1OC(C(N)=O)=C[C@H](c2cn(C(C)=O)c3ccccc23)[C@H]1CCCO,2%,·,·,·,-5%,·,0%,0%
COc1ccccc1N1CCN(S(=O)(=O)c2cccs2)CC1,0%,-4%,-25%,-4.6%,6%,13%,-18%,-3%
COc1cc(C2C3=C(COC3=O)Oc3cc4c(cc32)OCO4)cc(OC)c1O (stereo not given),2%,·,?,·,-17%,?,·,·
COc1cccc(C(C(=O)NC2CCCC2)N(Cc2ccco2)C(=O)c2ccco2)c1OC (stereo not given),1%,10%,0%,-1.6%,-6%,-25%,12%[9.22 µM],5%
COc1ccc(Cl)cc1C(=O)NNC(=O)COC(=O)c1ccc(Br)o1,13%,·,16%,·,-4%,-29%,·,-2%
CC(C(=O)Nc1ccc(F)c(F)c1F)N(C)Cc1cccs1 (stereo not given),1%,·,-11%[46.1 µM],·,-17%,-14%[46.1 µM],2%,6%
Cc1ccc(-n2c(C)nnc2SCC(=O)Nc2ccccc2)cc1,-6%,25%,?,-1.0%,-8%,1%,-5%,10%
Cc1cc(OC(F)F)ccc1NC(=S)NCCc1ccccc1,-10%,·,-7%,·,34%[activator],?,-1%,10%
Cc1nn(-c2ccccc2)c(OC(=O)c2ccccc2Cl)c1S(=O)(=O)c1ccccc1,·,1%,15%[46.1 µM],0.3%,-6%,18%[46.1 µM],·,·
CCC(C(=O)Nc1c2c(nn1C(C)(C)C)CS(=O)(=O)C2)c1ccccc1 (stereo not given),1%,·,6%,·,-7%,1%,15%,21%
O=C(Cn1nc(-c2ccc3c(c2)OCCO3)ccc1=O)Nc1ccc(N2CCOCC2)cc1,·,-1%,·,-7.8%,·,1%,-16%,-1%
COc1ccc(S(=O)(=O)N2CCN(c3nc4ccccc4nc3-n3nc(C)cc3C)CC2)cc1,·,-1%,·,-3.4%,·,·,-42%,5%
CCCCC(C(=O)O)C(C)CC(=O)Nc1nncs1 (stereo not given),16%,·,·,·,-13%,·,-4%,1%
N=C(N)SCc1nc2ccccc2c(=O)n1-c1ccccc1,0%&-12%,25µM*!,8%&-3%,-3.0%&-4.7%,6%&29%,?,9%&2%,3%&4%
Cc1nnc(SCC(=O)NNC(=O)c2ccc(Br)cc2)n1C,1%,·,2%[46.1 µM],·,1%,2%[46.1 µM],2%,1%
CCC(=O)N1CCc2cc(S(=O)(=O)CCC(=O)Nc3cccc(C)n3)ccc21,7%,·,20%,·,-16%,-16%,·,0%
C=CCN1C(=O)[C@]2(c3ccccc31)C1CCCC=C1C(C#N)=C(N)C2(C#N)C#N (stereo not given in full),0%,2%,-23%,-3.2%,0%,?,15%,-4%
CNc1c([N+](=O)[O-])cnn1-c1ccc(F)cc1,-2%,·,7%,·,2%,-13%[46.1 µM],8%,24%
COC(=O)c1c(NC(=O)CCNCc2ccco2)sc2c1CCC2,-15%,·,9%,·,-9%,?,-2%,0%
O=C(CC1C(=O)NCCN1Cc1ccc(-c2ccccc2)cc1)NCCOc1cccnc1 (stereo not given),-1%,·,·,·,0%,·,0%,1%
CC(CNc1ccccc1O)C(=O)O (stereo not given),14%,2%,-4%,1.7%,-16%,3%,-8%,-30%
CCC1CCCCN1CCCNC(=O)C1CCC(Cn2c(=O)[nH]c3ccccc3c2=O)CC1 (stereo not given),-1%[3.69 µM],-3%,-19%,0.3%,-7%,13%,-5%,1%
CC(C)=CCCC1(C)C=Cc2c(ccc3c2[nH]c2cc(O)c(C)cc23)O1 (stereo not given),?,·,·,·,-3%,·,?,-4%
Cc1ccc(NC(=O)CSc2ncc(-c3ccccc3)n2C(=O)c2ccccc2)cc1,1%,-6%,4%,-3.3%,34%[activator],4%,-13%,-11%
O=C(O)c1ccc(N2C(=O)CC(Cc3ccccc3)C2=O)cc1 (stereo not given),-12%,14%,11%,1.9%,-19%,7%,1%,-5%
CC(=O)NC1=NN(C(C)=O)C(C)(c2ccccc2)S1 (stereo not given),10%,1%,-9%,0.1%,·,?,3%,-4%
CCCCOCCCNC(=O)c1cccc(OC)c1,18%,0%,1%,-2.1%,8%,?,5%,9%
Cc1ncsc1CCSc1nc2ccccc2c(=O)n1C,7%,-7%,7%,-4.2%,·,?,-45%,-10%
Cc1cc(NC(=O)CCN2C(=O)/C(=C\c3ccccc3Cl)SC2=S)no1,12%,·,1%[46.1 µM],·,9%,10%[46.1 µM],·,-1%
CC(C)c1ccc(NC(=O)C(c2ccccc2)N2CCN(C=O)CC2)cc1 (stereo not given),-6%,?,-1%,1.5%,25%,-27%[46.1 µM],-12%,-13%
CCOC(=O)c1ccccc1NC(=O)Cn1c(-c2nonc2N)nc2ccccc21,22%,?,?,-1.6%,0%,0.052µM*,-17%,4%
Cc1ccc(C(=O)NCCNc2ccc([N+](=O)[O-])cc2C(F)(F)F)cc1,-7%,-4%,0%,-7.7%,-24%,-33%,9%,6%
CC1CCC(NCCNC(=O)c2ccco2)CC1 (stereo not given),-3%,·,-20%,·,-10%,15%[46.1 µM],-4%,0%
Cc1ccccc1CSc1nc(-c2cccc(F)c2)nc2c1Cc1c(CO)cnc(C)c1O2,·,5%,16%[46.1 µM],-2.4%,-20%,·,·,·
O=c1cc(CSc2nnc(-c3cccs3)n2Cc2ccccc2)nc2sc3ccccc3n12,12%,?,-26%,-11%,16µM*,?,10%,7%
Cc1nc2c(-c3ccccc3)c(C)nn2c(C)c1CCC(=O)O,3%,4%,·,-4.3%,0%,·,6%,-7%
CCCCC(CC)CNC(=O)/C=C/c1ccc(F)cc1 (stereo not given),·,-16%,-22%,-6.1%,·,-7%,-48%,-63%
CCN(CC)S(=O)(=O)c1ccc(C)c(NC(=S)NNC(=O)C2CC2)c1,0%,-1%,7%,10%,-16%,8%,?,-5%
Cc1ccccc1-n1c(=O)cc(N2CCC3(CC2)OCCO3)[nH]c1=O,-3%,2%,6%,0.2%,-5%,-9%,5%,9%
COC(=O)[C@H](C)NC(=O)Nc1cccc(C)c1,-8%,5%,1%,0.7%,-20%,-7%,-9%,-7%
Cc1cc(OC(C)C(=O)NCCCN2CCOCC2)c2c(C)cc(=O)oc2c1 (stereo not given),5%,·,·,·,1%,·,3%,1%
CCOc1ccc(/C=N/NC(=O)c2ccc(Cn3cc([N+](=O)[O-])cn3)o2)cc1,-7%,9%,?,-11%,5%,12%,5%,·
c1ccc(COCCCn2cc(-c3ccccc3)nn2)cc1,-16%,·,·,·,-2%,·,-22%,1%
CCn1cc(C(=O)NCc2ccc(OC)cc2)c(=O)c2ccc(C)nc21,4%,·,22%,·,-21%,-13%,0%,-2%
CC(=O)Cc1nsc(NC(=O)c2ccc(F)cc2)n1,20%,·,?,·,1%,5%[46.1 µM],5%,-2%

# 2 entries picked at random from those above, as already listed:
SMILES,RE007 growth inh,Cruzain noTriton,Lassa entry inh,Cruzain inh Det,2A StopGo,Marburg entry inh,NS1 inh,SARS PLP yeast
Cc1cc(OC(C)C(=O)NCCCN2CCOCC2)c2c(C)cc(=O)oc2c1 (stereo not given),5%,·,·,·,1%,·,3%,1%
CC(=O)Cc1nsc(NC(=O)c2ccc(F)cc2)n1,20%,·,?,·,1%,5%[46.1 µM],5%,-2%

# Next structures.
SMILES,RE007 growth inh,Cruzain noTriton,Lassa entry inh,Cruzain inh Det,2A StopGo,Marburg entry inh,NS1 inh,SARS PLP yeast
CC1C(=O)C(C)C(c2ccc([N+](=O)[O-])cc2)NC1c1ccc([N+](=O)[O-])cc1 (stereo not given),-12%,·,0%,·,?,?,5%,1%
COc1ccc(S(=O)(=O)N2CCN(c3cccc(C)c3C)CC2)c2ccccc12,·,-10%,?,0.0%,9%,10%[46.1 µM],·,·
O=C(NCc1ccco1)c1cc(-c2cccnc2)nc2ccc(Cl)cc12,7%,?,-2%,-14%,?,?,0%,?
COc1ccc(CCC(=O)Nc2ccccc2C(F)(F)F)cc1,-25%,7%,5%,-3.3%,-15%,-2%,7%,-9%
O=C(c1ccc(Nc2nc3ccccc3n3nnnc23)cc1)N1CCN(c2cccc(C(F)(F)F)c2)CC1,·,-9%,12%[46.1 µM],0.9%,-24%,-7%[46.1 µM],·,·
Oc1ccccc1-c1cc(-c2ccc(Cl)cc2)n[nH]1,-19%,·,3%[46.1 µM],·,13%,?,-7%,-6%
CC1CCN(CCC(=O)Nc2ccc(Br)cc2)CC1,5%,·,-29%,·,·,?,7%,·
CC(C)CCNC(=O)c1cc2c(=O)n3ccccc3nc2s1,1%,·,?,·,24%,?,-3%,0%
O=C(NCCc1ccc(Cl)cc1)c1ccc(Nc2nc3ccccc3n3nnnc23)cc1,·,-5%,?,-0.4%,?,?,·,·
O=C(Cc1cccs1)N1CCN(c2ccc(F)cc2)CC1,0%,-5%,?,-2.0%,-18%,16%,-11%,27%
COc1cc(CN2CCC(n3nccc3NC(=O)c3ccccc3OC)CC2)ccc1F,-17%,·,3%,·,-2%,-6%,3%,10%
COc1cccc(CNC(=O)c2ccc3c(c2)nc2n3CCC(C)C2)c1OC (stereo not given),·,-3%,18%[46.1 µM],6.1%,17%,·,·,·
CCc1c(C(=O)c2ccc(Cl)cc2)oc2c(C)c3oc(=O)cc(C)c3cc12,9%,-2%,1%,4.6%,0%,-2%,6%,3%
CN1C/C(=C/c2ccncc2)C(=O)/C(=C/c2ccncc2)C1,-4%,·,?,·,-7%,0%[46.1 µM],-14%,-7%
